High-throughput results from PubChem BioAssay.
NPYLR7 ag: activates Aedes aegypti NPYLR7 receptor. HEK293T NPYLR7/Galpha15, GCaMP6s calcium fluorescence. activation, % at 10 µM. 0.15% of 270,000 active; in the data active = activation above about 40%;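 note: 0% = vehicle and 100% = reference agonist at the receptor; some compounds past the cut are filed as inactive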
NPYLR7 ag max-min: second read-out of NPYLR7 ag, no call of its own (marks repeat the call); activation, %; measured here: Max-Min RFU normalised activation; some inactives read as strong as hits;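 span of the calcium signal over five minutes; 0% = vehicle and 100% = native peptide agonist; compound fluorescence can raise it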
Numbers without * were called inactive. A portion of the library; count on the stated rates, not on these rows.

Order of results: NPYLR7 ag | NPYLR7 ag max-min
(1) Cc1c(C(=O)NCc2ccc3c(c2)OCCO3)sc(=O)n1CCc1ccccc1
 : 2.2 | -0.3
(2) C=CCNC(=O)c1cccc(S(=O)(=O)N2CCSC2)c1
 : 2.8 | 0.8
(3) CCC(C)NC(=O)c1cc(-c2ccc(F)cc2)nc2cc(C(C)(C)C)nn12 (stereo unspecified)
 : -3.3 | 4.2
(4) CCN(CC)C(=O)[C@@H]1C[C@@H](n2cc(-c3ccccn3)nn2)CN1
 : 4.9 | 4.8
(5) O=C(c1cnc(-c2ccccc2)s1)N1CCCC1Cc1ccccc1 (stereo unspecified)
 : 4.3 | 0.9
(6) CN(C(=O)CSc1nnc(-c2cccs2)n1C1CC1)C1CCS(=O)(=O)C1 (stereo unspecified)
 : -4.3 | 15.6
(7) CN1CC(=O)N(CC(=O)N2CCOCC2)C1=O
 : -9.2 | -20.5
(8) CC(C)(C)CC(=O)N1CCC2(CC1)OCC(C(=O)NC1CC1)N2C(=O)c1ccc(F)cc1 (stereo unspecified)
 : 1.3 | 6.4
(9) COCC1CCN(c2nc3nonc3nc2N2CCSCC2)C1 (stereo unspecified)
 : -4.8 | 0.9
(10) COCCn1c(=O)c2c(nc3n2CCN3c2ccccc2C)n(C)c1=O
 : -5.2 | -5.3
(11) CC1=NN(c2ccc(C)cc2)C(O)C1 (stereo unspecified)
 : -0.3 | 15.1
(12) Cc1ccc(Nc2nc(N3CC(C)OC(C)C3)nc3nccnc23)cc1Cl (stereo unspecified)
 : 2.8 | 10.0
(13) C=CCN(Cc1ccco1)C(=O)c1sc(C(C)C)nc1C
 : 28.6 | 12.5
(14) CC(Cn1cnc2ccccc2c1=O)NCc1nc2ccc(Cl)cc2[nH]1 (stereo unspecified)
 : 0.6 | 2.1
(15) COc1ccccc1CNC(=O)CSc1nccn2nc(-c3cccc4ccccc34)cc12
 : -2.8 | -6.9
(16) Cc1cc(NC(=O)Cn2nc(C(=O)N3CCOCC3)cc2C)c2ccccc2n1
 : 0.9 | 0.6
(17) CC1(C)CC2=NN(c3ccccc3)P(=O)(Nc3ccccc3[N+](=O)[O-])C2=C(N2CCCCC2)C1 (stereo unspecified)
 : 1.5 | 0.2
(18) CCOC(=O)C1(C)CCCN1C(=O)c1ccc(F)cc1Cl (stereo unspecified)
 : -2.6 | -6.1
(19) CCc1ccccc1OC1CN(S(=O)(=O)NCc2ccccc2)C1
 : 4.1 | 3.4
(20) COc1ccccc1CCNC(=O)CC1CSc2nccc(=O)n21 (stereo unspecified)
 : -0.8 | 0.9
(21) CCOc1c(C)cc(COC(=O)CC2CCCO2)cc1C (stereo unspecified)
 : -2.0 | -4.9
(22) COC[C@@H]1CCCN1c1nc(N)nc2nc[nH]c12
 : 8.4 | 7.5
(23) O=C(NCc1ccccc1)N1CCN2C[C@@H](CO)[C@H](c3ccccc3)[C@H]2C1
 : 5.5 | 13.7
(24) O=C(CCc1nnc(CCc2c[nH]c3ccccc23)o1)NC1CCCc2ccccc21 (stereo unspecified)
 : -0.4 | -5.1
(25) CN1C(=O)C2(CCN(c3ncc(F)cn3)CC2)c2ccccc21
 : 21.7 | 11.4
(26) O=C(CN1C(=O)c2ccccc2S1(=O)=O)Nc1ccc(I)cc1
 : -6.0 | 2.6
(27) CCOC(=O)CCCn1nc(CC)n2c(cc3occc32)c1=O
 : -2.1 | -4.3
(28) CNC(=S)NC(N=C(OC)c1ccc(C)cc1)C(Cl)(Cl)Cl (stereo unspecified)
 : -7.9 | -9.8
(29) Cc1cc(C(=O)NC(C)(C)C)nc2cc(-c3ccccc3)nn12
 : -12.7 | -3.0
(30) Cc1cc(C)c2cc3c(cc2n1)CCN3CC(O)CO (stereo unspecified)
 : 187.5* | 154.0*
(31) CC(Nc1ccc(NC(=O)C2CC2)cc1)C(=O)Nc1ccc(F)cc1F (stereo unspecified)
 : 5.6 | 3.6
(32) CC(C)c1c(C(=O)OCC(=O)NC2CCCCC2)cnc2ncnn12
 : 1.1 | -1.5
(33) O=C(Nc1ccc(-n2nccn2)cc1)c1ccc(O)c(Cl)c1
 : 3.5 | 1.9
(34) CC12CCC3c4ccc(O)cc4CCC3C1C[C@H](O)[C@@H]2O (stereo partly specified)
 : -5.1 | -13.6
(35) Cc1ccc(C)c(S(=O)(=O)N2CCN(C(=O)CCl)CC2)c1
 : -2.8 | -8.3
(36) O=C(NC1CC1)C1CCCN(S(=O)(=O)N2CCOCC2)C1 (stereo unspecified)
 : 1.9 | -0.3
(37) Cn1nc(C(C)(C)C)cc1NC(=O)c1ccc(C(F)(F)F)cc1
 : -0.7 | -2.1
(38) Cc1ccccc1-n1c(SCc2ccc(C(=O)NCc3ccncc3)cc2)nnc1-c1ccccc1Cl
 : 4.0 | 19.7
(39) CC(C)c1ccc(C2C(C(=O)c3ccco3)=C(O)C(=O)N2CCCN(C)C)cc1 (stereo unspecified)
 : 4.5 | 4.8
(40) CCn1ccnc1CN1CCCC1C(=O)Nc1ccc(-n2ccnc2C)cc1 (stereo unspecified)
 : 4.6 | -2.3
(41) CCOC(=O)C1(Cc2cccc(OC)c2)CCN(Cc2ccn[nH]2)CC1
 : 1.5 | 11.6
(42) CN(C)CCNC(=O)c1cc2c(s1)CSC2
 : 5.8 | 7.3
(43) CCOc1ccccc1N1C(=O)CSC1c1ccc(NC(=O)c2ccc(Br)cc2)cc1 (stereo unspecified)
 : 2.2 | 4.5
(44) Cc1noc(C)c1CCC(=O)Nc1ccn(C(C)(C)C)n1
 : -23.6 | -21.3
(45) CCNc1ncnc2sc3c(c12)CCCC3
 : 2.8 | 0.7
(46) CC1CN2C(=O)CN(C(=O)c3cccc(C(F)(F)F)c3)CC2c2ccccc21 (stereo unspecified)
 : 0.0 | 10.6
(47) CCOC(=O)c1nc2ccccc2nc1N1CCN(C(=O)COCCOC)CC1
 : 5.5 | -1.5
(48) CCN(CC)c1nc2ccccc2n(C(C)C(=O)Nc2ccc3c(c2)CCC3)c1=O (stereo unspecified)
 : 11.1 | 3.9
(49) CC(=O)Nc1nc2c(Oc3cc(-c4ccc(C(F)(F)F)cc4)ncn3)cccc2s1
 : -4.6 | -6.7
(50) O=C(C1CCNCC1)N1CCCCC1
 : 13.7 | 13.8
(51) COc1c(Cl)cccc1NCc1csc(C)n1
 : 5.2 | 1.6
(52) CN(C(=O)c1cccnc1N1CCOCC1)C1Cc2ccccc2C1
 : -8.2 | -10.3
(53) COc1ccc(-c2nn3c(Cc4ccc(OC)c(OC)c4)nnc3s2)c(OC)c1
 : 0.0 | -1.9
(54) Nc1cccc(C(=O)N2CCOCC2)c1Nc1ccccc1
 : -1.9 | -4.2
(55) Cc1nc(Cl)c(C#N)c(C)c1[N+](=O)[O-]
 : 1.5 | -0.2
(56) CC(=O)c1ccc(NC(=O)O[C@@H]2CO[C@H]3[C@@H]2OC[C@@H]3Nc2nccc(-c3ccco3)n2)cc1
 : -8.4 | -13.5
(57) CCc1ccc(CN(C)C(=O)c2cc(COc3ccc(-n4cncn4)cc3)on2)cc1
 : 5.6 | -0.2
(58) CC(C)(C)n1nc2c(c1NC(=O)c1ccc(Cl)cc1Cl)CSC2
 : -2.7 | -4.7
(59) CC(=O)Nc1ccc(NC(=O)C(C)n2c(C)cc(C)nc2=O)cc1 (stereo unspecified)
 : 2.0 | 1.9
(60) CC1CCCN(S(=O)(=O)N2CCC(c3ccn[nH]3)CC2)C1 (stereo unspecified)
 : -1.9 | -1.2

Some of the entries so far, tab-delimited:
no.	structure	NPYLR7 ag	NPYLR7 ag max-min
41	CCOC(=O)C1(Cc2cccc(OC)c2)CCN(Cc2ccn[nH]2)CC1	1.5	11.6
42	CN(C)CCNC(=O)c1cc2c(s1)CSC2	5.8	7.3
43	CCOc1ccccc1N1C(=O)CSC1c1ccc(NC(=O)c2ccc(Br)cc2)cc1 (stereo unspecified)	2.2	4.5
44	Cc1noc(C)c1CCC(=O)Nc1ccn(C(C)(C)C)n1	-23.6	-21.3
45	CCNc1ncnc2sc3c(c12)CCCC3	2.8	0.7
46	CC1CN2C(=O)CN(C(=O)c3cccc(C(F)(F)F)c3)CC2c2ccccc21 (stereo unspecified)	0.0	10.6
47	CCOC(=O)c1nc2ccccc2nc1N1CCN(C(=O)COCCOC)CC1	5.5	-1.5
48	CCN(CC)c1nc2ccccc2n(C(C)C(=O)Nc2ccc3c(c2)CCC3)c1=O (stereo unspecified)	11.1	3.9
49	CC(=O)Nc1nc2c(Oc3cc(-c4ccc(C(F)(F)F)cc4)ncn3)cccc2s1	-4.6	-6.7
50	O=C(C1CCNCC1)N1CCCCC1	13.7	13.8
51	COc1c(Cl)cccc1NCc1csc(C)n1	5.2	1.6
52	CN(C(=O)c1cccnc1N1CCOCC1)C1Cc2ccccc2C1	-8.2	-10.3
53	COc1ccc(-c2nn3c(Cc4ccc(OC)c(OC)c4)nnc3s2)c(OC)c1	0.0	-1.9
54	Nc1cccc(C(=O)N2CCOCC2)c1Nc1ccccc1	-1.9	-4.2
55	Cc1nc(Cl)c(C#N)c(C)c1[N+](=O)[O-]	1.5	-0.2
56	CC(=O)c1ccc(NC(=O)O[C@@H]2CO[C@H]3[C@@H]2OC[C@@H]3Nc2nccc(-c3ccco3)n2)cc1	-8.4	-13.5
57	CCc1ccc(CN(C)C(=O)c2cc(COc3ccc(-n4cncn4)cc3)on2)cc1	5.6	-0.2
58	CC(C)(C)n1nc2c(c1NC(=O)c1ccc(Cl)cc1Cl)CSC2	-2.7	-4.7
59	CC(=O)Nc1ccc(NC(=O)C(C)n2c(C)cc(C)nc2=O)cc1 (stereo unspecified)	2.0	1.9
60	CC1CCCN(S(=O)(=O)N2CCC(c3ccn[nH]3)CC2)C1 (stereo unspecified)	-1.9	-1.2

Additional entries follow:
Order of results: NPYLR7 ag | NPYLR7 ag max-min
(61) Cc1cc(C)c(S(=O)(=O)NC(Cc2ccccc2)C(=O)Nc2nnc(-c3ccc4c(c3)OCO4)s2)c(C)c1 (stereo unspecified)
 : -2.7 | -7.6
(62) CC(=O)Nc1ccc(-c2ccccc2CN2CCNCC2)cc1
 : 26.7 | 13.9
(63) CCc1ccc2oc(=O)cc(CN(C)C(C)c3ccncn3)c2c1 (stereo unspecified)
 : 1.3 | -0.8
(64) Cn1nc(C2CCN(c3ncc(F)cn3)CC2)n(Cc2ccccc2)c1=O
 : -0.1 | -2.6
(65) O=S(=O)(c1ccccc1Cl)N1CCC(Cc2ccc(-c3ccccc3)cc2)CC1
 : 0.7 | 3.6
(66) CCOc1ccc(-c2cccc(NS(=O)(=O)c3ccccc3C(F)(F)F)c2)nn1
 : -1.5 | 7.6
(67) CCC(CC)C(=O)N1CC[C@H](O)C[C@@H]1C(=O)O
 : -1.6 | 5.4
(68) Cc1nc(-n2nc(-c3ccco3)cc2NC(=O)c2cc3ccccc3o2)[nH]c(=O)c1C
 : 2.1 | 1.3
(69) CCc1cc(NC(=O)C2CCC(=O)N2Cc2ccc(C)cc2)n(C)n1 (stereo unspecified)
 : -24.3 | -24.5
(70) CC(C)(C)c1ccc(C(=O)N2CCC2(C)C(=O)NS(=O)(=O)c2ccc(Cl)cc2)cc1 (stereo unspecified)
 : 0.9 | -1.3
(71) Cc1cc(C)cc(-n2c(SCC(=O)NC3CCCC3)nc3c(c2=O)SCC3)c1
 : -3.9 | -9.3
(72) O=C(c1cn(C/C=C/c2ccccc2)nn1)N1CCC(C(O)c2cccs2)CC1 (stereo unspecified)
 : 12.3 | 3.5
(73) COc1ccc(NC(C)=O)cc1NC(=O)c1ccc(N2CCCCS2(=O)=O)cc1
 : -2.9 | 5.3
(74) COCCNC(=O)c1ccc(CSc2nnc(-c3ccc(C)cc3)n2-c2ccc(F)cc2)cc1
 : 9.8 | 17.0
(75) COc1ccccc1-c1nc2c(Br)cc(Br)cn2c1Nc1c(C)cccc1C
 : 3.5 | 8.7
(76) CC(=O)c1ccc(NC(=O)CN2CCN(Cc3nc(C(C)(C)C)cs3)CC2)cc1
 : -18.1 | -21.8
(77) Cc1cccn2cc(CC(=O)NC3CCCCCCC3)nc12
 : 3.1 | 2.4
(78) Cc1noc2nc(-c3ccccc3F)cc(C(=O)N(C)C3(C#N)CCC3)c12
 : 10.5 | 8.5
(79) COc1ccc(N2C(=O)C(c3c(C(C)C)[nH]n(-c4ccc(Cl)c(Cl)c4)c3=O)=C([n+]3ccccc3)C2=O)cc1
 : -3.3 | 3.7
(80) O=C(CCSc1ccc2c(c1)OCCO2)NCC1CCS(=O)(=O)C1 (stereo unspecified)
 : 2.9 | 1.6
(81) CC(NC(=O)C1(c2cccc(C(F)(F)F)c2)CCCC1)c1ccc2c(c1)CCC(=O)N2 (stereo unspecified)
 : 20.9 | 22.1
(82) CCOC(=O)c1sc2nc(CN3CCOCC3)nc(NCCCN3CCCCC3)c2c1C
 : 9.3 | 3.5
(83) COc1ccc(Cl)cc1Nc1nnc(-c2cc3c(ccc4ccccc43)oc2=O)s1
 : 58.5* | 69.9*
(84) CC(C)CCS(=O)(=O)NCc1sccc1Br
 : 8.1 | 5.5
(85) COc1ccc(C(=O)NC2CCC(NC(=O)[C@H]3CCCN3C(=O)c3ccc(Cl)cc3)CC2)cc1 (stereo partly specified)
 : 20.8 | 31.7
(86) CCOC(C)C(=O)Nc1ncc(C)[nH]1 (stereo unspecified)
 : 4.5 | 1.9
(87) CN1C(=O)[C@H](OC(N)=O)[C@@H](C(=O)Nc2ccccc2)C12CCN(C(=O)NCc1ccccc1)CC2
 : 14.8 | 13.3
(88) Cc1ccc2cccc(OCCNC3CCN(C(=O)C(C)C)CC3)c2n1
 : -4.9 | -5.8
(89) Fc1ccc(C2c3cccn3CCCN2Cc2ccc(Cl)cc2)cc1F (stereo unspecified)
 : 25.5 | 20.0
(90) O=C1NC2(CCN(C(=O)c3ccccc3Br)CC2)Nc2cccc(Cl)c21
 : -0.7 | 5.2
(91) CC(C)Cn1c2c(=O)n(C)c(=O)n(C)c2n2c(-c3ccc(OCc4ccccc4)cc3)nnc12
 : 6.3 | 0.9

Three compounds already listed, ordered by length of the SMILES, high to low:
Order of results: NPYLR7 ag | NPYLR7 ag max-min
(82) CCOC(=O)c1sc2nc(CN3CCOCC3)nc(NCCCN3CCCCC3)c2c1C
 : 9.3 | 3.5
(88) Cc1ccc2cccc(OCCNC3CCN(C(=O)C(C)C)CC3)c2n1
 : -4.9 | -5.8
(86) CCOC(C)C(=O)Nc1ncc(C)[nH]1 (stereo unspecified)
 : 4.5 | 1.9
